H5N1 CPE – MDCK cell protection from H5N1 avian flu; inhibition, % at 50 µM; cytopathic effect, luminescence, 72 h; active compounds read high; no value below 0 was filed and about half of the inactive calls have no number; reference of the scale not given here; 96,000 compounds, 0.07% hits; AID 740; in the data active means inhibition above about 25%
An asterisk follows results filed as active; i = inactive.

SMILES	H5N1 CPE
COC(=O)C1=C(C)NC(=O)C1(Nc1ccc(Cl)cn1)C(F)(F)F (stereo unspecified)	i
CSc1ccccc1NC(=O)c1c(C)noc1C	2.0
O=C(c1cnn2c(C(F)F)cc(C3CC3)nc12)N1CCOCC1	0.0
CC1CC(=O)N(CC(=O)N2CCCC2)c2ccccc2S1 (stereo unspecified)	0.1
CCOc1ccc(Nc2nc(N3CCCCC3)nc(N3CCCCC3)n2)cc1	i
COc1cc(C(C)=O)ccc1OC(=O)C(C)N1C(=O)c2ccccc2C1=O (stereo unspecified)	i
O=C(NCCc1c[nH]c2ccccc12)C(F)(F)F	i
O=c1c2c(nc3n1CCCCC3)sc1c(O)c(Br)ccc12	i
Cc1ccc(NCc2nnc(SC(C)C(=O)N/N=C/c3ccc(C)o3)n2-c2ccccc2)cc1 (stereo unspecified)	i
CCOC(=O)N1CCN(C(=O)CN(c2ccccc2OC)S(=O)(=O)c2ccc(C)cc2)CC1	i
COc1cc(C2C(C#N)=C(N)OC3=C2C(=O)CC(C)(C)C3)ccc1OC(=O)N1CCOCC1 (stereo unspecified)	i
COC(=O)C1Sc2[nH]c(=O)sc2C(c2ccc(Cl)cc2)C1C(=O)OC (stereo unspecified)	0.8

Filtered by structure: the entries above containing an aryl thioether with sulfur outside any ring (2)
SMILES	H5N1 CPE
CSc1ccccc1NC(=O)c1c(C)noc1C	2.0
Cc1ccc(NCc2nnc(SC(C)C(=O)N/N=C/c3ccc(C)o3)n2-c2ccccc2)cc1 (stereo unspecified)	i

Next section
SMILES	H5N1 CPE
Cc1cccc(C)c1OCCCN1CCCC1	1.2
Cc1nn(Cc2ccc([N+](=O)[O-])cc2)c(=O)n1-c1cccc(F)c1	i
CCC1CCCCN1C(=O)CCCOc1ccccc1 (stereo unspecified)	0.4
COc1ccc(N(C)C(=O)c2ccc3nc(-c4ccccc4)c(-c4ccccc4)nc3c2)cc1	i
CCCCNC(=O)CSc1nnc(NC(C)=O)s1	i
C=CCSc1[nH]c(=O)cc(C)c1C(N)=O	0.0
Cc1ccc(S(=O)(=O)N(C)CC(=O)N2CCCc3ccccc32)cc1	0.1
COc1cccc(C(=O)Nc2ccccc2)c1	0.5
Cc1cccc(CS(=O)(=O)c2nnc([C@H](Cc3ccccc3)NC(=O)OC(C)(C)C)o2)c1	0.8
c1ccc(-c2csc(Nc3cccnc3)n2)nc1	1.4
COC(=O)N1CCN(S(=O)(=O)c2ccc(F)cc2)CC1	0.9
Cc1ccc(OCCCN2CCCC2)c(C)c1	i
O=C1C(Cc2ccccc2)S/C(=N/N=C/c2ccco2)N1c1ccccc1 (stereo unspecified)	1.5
COC(=O)CNc1c(-c2ccccc2)nc2ccc(Br)cn12	0.2
O=C(Cn1c(=O)n(-c2ccccc2)c(=O)c2sccc21)N1CCCC1	i
CCC1(C)CC(CCNS(=O)(=O)c2ccc(C)cc2)(c2ccc(C)cc2)CCO1 (stereo unspecified)	i
Cn1c(=O)c2cc(S(=O)(=O)NCCC(=O)NC3CCCCCCC3)ccc2n(C)c1=O	i
Cc1ccc(N(Cc2ccc(C(=O)NC3CCCCC3)cc2)S(C)(=O)=O)cc1C	i
CCN(CC)S(=O)(=O)c1ccc(OC)c(NS(=O)(=O)c2ccc(F)cc2)c1	i
CN1C(=O)c2ccc(N3CCCC3)cc2C1=O	1.9
C=CCOc1ccc(C2C(C#N)=C(N)N(Nc3ccccc3)C3=C2C(=O)CCC3)cc1OC (stereo unspecified)	i
CC[C@@H](C)[C@H](NC(=O)C1CCN(C(=O)[C@@H](NS(=O)(=O)c2ccc(C)cc2)C(C)C)CC1)C(=O)O	i
Cc1ccccc1-n1nc(C)c2cc(C(=O)NCc3cccnc3)sc21	i
O=c1[nH]c(CSc2nc3ccccc3o2)nc2c1cnn2-c1ccccc1	i
N#Cc1nc(-c2cccs2)oc1NCc1ccc(Cl)cc1	i
O=C(NCc1cccnc1)c1ccc(COc2cccc3ccccc23)o1	i
COCCNC(=O)CSc1nc2ccccc2c2nc(C)nn12	i
Cc1ccc(-n2cc3c(-c4cccc(Br)c4)nnc(C)c3n2)cc1	0.8
Cc1c(C(=O)NCc2cccnc2)sc2nc(-c3ccc(F)cc3)cn12	2.9
O=C(Nc1ccccc1)c1sc2cc(C(F)(F)F)cnc2c1-c1cccs1	i
CCOc1ccc(N2C(=O)CC(NCc3ccc(F)cc3)C2=O)cc1 (stereo unspecified)	0.2
Cc1oc2ccc(OCc3ccccc3F)cc2c1C(=O)O	i
O=C(Nc1ccccc1Cl)N1CCN(c2ccccn2)CC1	i
NS(=O)(=O)c1ccc(-c2ccc(C=NC3CCS(=O)(=O)C3)o2)cc1 (stereo unspecified)	0.0
O=C(CCC(NC(=O)OCc1ccccc1)C(=O)OCC(=O)N1CCCCC1)OCC(=O)N1CCCCC1 (stereo unspecified)	i
CN1c2ccccc2C(C)(C)C12C=Nc1c(cc(N3CCOCC3)c3ccccc13)O2 (stereo unspecified)	i
COc1cc2[nH]c(=S)n(C3CCCC3)c(=O)c2cc1OC	i
COc1ccc(/C=C2\CCc3ccccc3C2=O)cc1Cn1nc(C)cc1C	0.1
Cc1ccc(C)c(N2CCN(S(=O)(=O)c3c(C)noc3/C=C/N(C)C)CC2)c1	1.8
CN1CCN(c2ccc(C(N)=O)cc2N)CC1	0.1
CC(NO)/C(=N\O)c1cccs1 (stereo unspecified)	i
O=C(Cc1cnn(-c2ccccc2)c1)c1ccc(O)c(O)c1O	0.1
COC(=O)/C=c1/sc2n(c1=O)CCN=2	i
Cc1cc(C(=O)CSc2n[nH]c(N)n2)c(C)n1-c1cccc(F)c1	0.1
COc1ccc(-c2ncccc2O)cc1	i
Cc1cc(C)nc(/N=C2\NC(=O)CC(C(=O)O)N2c2ccc(Cl)cc2)n1 (stereo unspecified)	1.4
Fc1ccc(-c2cnc[nH]2)cc1	i
COc1ccc(CCNc2c([N+](=O)[O-])c(=O)oc3ccccc23)cc1OC	1.8
Cc1ccccc1NC(=O)c1ccc(CN2CCc3ccccc3C2)cc1	i
Cc1nc2sccc2c(=O)n1-c1cccc(Cl)c1	0.8
COc1ccc(OC)c(N(CC(=O)Nc2ccccc2C(=O)NCc2ccco2)S(C)(=O)=O)c1	0.6
O=S(=O)(c1ccccc1)c1nc(-c2cccs2)oc1NCCCn1ccnc1	2.7
CCOC(=O)c1c(NC(=O)C2CCCO2)sc(C(=O)OC(C)(C)C)c1C (stereo unspecified)	i
O=c1/c(=C/c2ccccn2)sc2n1CN(c1ccccc1)CN=2	0.6
Cc1ccccc1-n1c(=O)cc(NCc2ccc3c(c2)OCO3)[nH]c1=O	i
COc1ccc(OC)c(NC(=O)COC(=O)/C=C/c2c(C)nn(C3CCS(=O)(=O)C3)c2Cl)c1 (stereo unspecified)	i
CCOC(=O)c1c(N)c(C#N)c2n1CCCC2	1.6
O=C(NC1CCCCC1)NC1CC2CCC(C1)N2C(=S)NCc1ccco1 (stereo unspecified)	0.1
COc1ccc(NC(=O)CN2CCC3(O)CCCCC3C2c2cc(OC)ccc2OC)cc1 (stereo unspecified)	i
Cc1nn(-c2ccc3nnc(Br)n3n2)c(C)c1Br	i
The list goes on.
SMILES	H5N1 CPE
CCn1c(SC(C)C)nnc1C1CCN(S(=O)(=O)c2ccc(OC)cc2)CC1	0.4
O=C(Nc1cccc(C(F)(F)F)c1)c1cc2ncc(Br)cn2n1	i
COc1cccc(NC(=O)CCN2C(=O)c3ccccc3S2(=O)=O)c1	0.3
CCC(C)NCCOCCSc1ccc(Cl)cc1 (stereo unspecified)	0.2
Clc1ccc(C2CC(c3cccs3)n3ncnc3N2)cc1Cl (stereo unspecified)	i
CSc1cccc(NC(=O)C2CCCN(S(=O)(=O)c3cnc[nH]3)C2)c1 (stereo unspecified)	0.8
Cc1ccc(C(=O)ONc2ccc(N=O)cc2)cc1	i
Cc1ccc(Cc2cnc(NC(=O)/C(C#N)=C/c3ccc(-c4cccc([N+](=O)[O-])c4)o3)s2)cc1	i
Cc1ccccc1CS(=O)(=O)CCC(=O)NCCN1CCN(c2cccc(Cl)c2)CC1	i
c1ccc(OCCOc2ncnc3ccccc23)cc1	0.7
CCOC(=O)N(c1ccccc1)P1(=S)OCCO1	i
Cc1ccc(C(C)NC(=O)/C(C#N)=C\c2c(C)[nH]c3ccccc23)cc1 (stereo unspecified)	0.7

Rewritten in CSV form: part of the list above.
mol,H5N1 CPE
CCC1(C)CC(CCNS(=O)(=O)c2ccc(C)cc2)(c2ccc(C)cc2)CCO1 (stereo unspecified),i
Cn1c(=O)c2cc(S(=O)(=O)NCCC(=O)NC3CCCCCCC3)ccc2n(C)c1=O,i
Cc1ccc(N(Cc2ccc(C(=O)NC3CCCCC3)cc2)S(C)(=O)=O)cc1C,i
CCN(CC)S(=O)(=O)c1ccc(OC)c(NS(=O)(=O)c2ccc(F)cc2)c1,i
CN1C(=O)c2ccc(N3CCCC3)cc2C1=O,1.9
C=CCOc1ccc(C2C(C#N)=C(N)N(Nc3ccccc3)C3=C2C(=O)CCC3)cc1OC (stereo unspecified),i

Later entries
SMILES	H5N1 CPE
C/C(N)=C(/C#N)C(=O)CSc1nnc(Nc2cccc(C)c2C)s1	i
CCS(=O)(=O)/N=C(\N)c1ccccc1	0.6
C=CCn1c(SCC(=O)Nc2ccc(C(=O)OCC)cc2)nnc1-c1cccs1	0.4
COc1ccc(N2CC(C(=O)Nc3cc(C)on3)CC2=O)cc1 (stereo unspecified)	i
Cc1nn(-c2cc(N3CCOCC3)ccc2N)c(=O)c2ccccc12	i
O=C(Nc1ccc(S(=O)(=O)NC2CCCCC2)cc1)c1ccc(Br)o1	i
CC1COC2C(O1)N(S(C)(=O)=O)CCN2S(C)(=O)=O (stereo unspecified)	0.8
Cn1c2ccccc2c2ncn(Cc3ccco3)c(=O)c21	0.3
CC(=O)c1c(C)[nH]c(C(=O)N2CCc3ccccc32)c1C	i
CCOC(=O)Cn1c(=O)oc2cc(S(=O)(=O)N3CCCc4ccccc43)ccc21	1.9
CCCn1c(SCC(=O)Nc2c(C)cccc2C)nnc1C(C)C	i
CC(C)C[C@H](NC(=O)OC(C)(C)C)c1nnc(SCc2cccc(F)c2)o1	3.9

2 entries from above, with each value named.
> CN1c2ccccc2C(C)(C)C12C=Nc1c(cc(N3CCOCC3)c3ccccc13)O2 (stereo unspecified)
- H5N1 CPE: i
> COc1cc2[nH]c(=S)n(C3CCCC3)c(=O)c2cc1OC
- H5N1 CPE: i

(listing goes on)
SMILES	H5N1 CPE
COC(=O)c1sc2nc(-c3ccccc3)c3c(c2c1N)CCCC3	1.7
CCn1c(COc2ccc(=O)n(-c3ccccc3)n2)nnc1SCc1ccc(C)cc1	1.3
COc1ccc(C2/C(=C(\O)c3ccc(OC)c(Cl)c3)C(=O)C(=O)N2CCN(C)C)cc1 (stereo unspecified)	i
OC(c1ccccn1)c1c[nH]c2ccccc12 (stereo unspecified)	i
COCCN1C(=O)c2ccc(C(=O)Nc3nccs3)cc2C1=O	0.8
O=S(=O)(NCCOC12CC3CC(CC(C3)C1)C2)c1cccc2nsnc12	12.3
CN1CCN(c2ccc(C(=O)c3ccc(F)cc3)cc2)CC1	i
CCOC(=O)N1CCN(C(=O)Cc2ccc(C)cc2)CC1	i
O=S(=O)(Nc1ccc(N2CCCCC2)cc1)c1cccs1	1.0
COc1ccc(C(C)(C)C)cc1NC(=O)C1CC=CCC1C(=O)O (stereo unspecified)	i
O=C(NCCSCc1ccccc1)c1cc(S(=O)(=O)N2CCOCC2)ccc1F	2.8
O=C(OCCN1C(=O)c2ccccc2C1=O)c1cc2ccccc2o1	0.5
N#CCc1nc(CSc2nc3ccccc3s2)cs1	1.3
CCOC(=O)CSc1nnc(NC(=O)c2cccc(S(=O)(=O)N3CCCCC3)c2)s1	i
CCCCCNC(=O)Cc1cc(=O)[nH]c(=O)[nH]1	1.1
CCC(C)N(C(=O)Cn1nnc2ccccc21)C(C(=O)NCc1ccco1)c1cccc(OC)c1 (stereo unspecified)	1.7
O=C(CSc1n[nH]c(-c2ccco2)n1)Nc1sc2c(c1C(=O)Nc1ccccc1)CCCC2	i
C/C=C(\C)CN1CCN(c2cccc(C)c2C)CC1	i
Cn1cc(C(c2ccccn2)c2cn(C)c3ccccc23)c2ccccc21	0.2
CCNc1nc(NCC)nc(C(=O)Nc2ccccc2)n1	i
CCCN1CC=C2C(C#N)=C(N)C(C#N)(C#N)C(c3cc(OC)ccc3OC)C2C1 (stereo unspecified)	0.8
CC(C)N(Cc1nc(-c2ccccc2)no1)S(=O)(=O)c1ccccc1	5.6
O=c1cc(Nc2ccc3c(c2)OCCO3)[nH]c(=O)n1-c1ccc(Cl)cc1	1.0
C=CCc1c(C)nc(C)nc1N/N=C/c1ccc([N+](=O)[O-])cc1	1.3
Nc1sc2c(c1C(=O)NC1CCS(=O)(=O)C1)CCCC2 (stereo unspecified)	1.6
CCOc1ccccc1N1CC(C(=O)Nc2ccccc2N2CCOCC2)CC1=O (stereo unspecified)	i
Cc1cc(C)nc(SCC(=O)N2CCC(C(N)=O)CC2)n1	1.2
CCCSc1nc2c(cnn2-c2ccc(F)cc2)c(=O)[nH]1	i
O=C(CN1CCOCC1)Nc1cc(Cl)ccc1Cl	i
Cc1cccc(-n2c(CNC(=O)c3ccc(S(=O)(=O)N4CCCC4)cc3)n[nH]c2=S)c1	0.5
COc1ccc(-n2ncc3c(NCC4CCCO4)ncnc32)cc1 (stereo unspecified)	i
Cc1ccc(CN2C(=O)CCC2C(=O)NCCCN2CCOCC2)cc1 (stereo unspecified)	0.8
Cc1noc(C)c1CSc1nnnn1-c1ccc(Cl)cc1	3.5
CCn1c(SCC(=O)N2CCCCC2)nc2c(c1=O)SC(C)C2 (stereo unspecified)	0.7
Cc1cc(=O)oc2c(CN3CCN(C)CC3)c(O)c(Cl)cc12	0.2

Of the compounds above, 4 have a CF3 group.
SMILES	H5N1 CPE
COC(=O)C1=C(C)NC(=O)C1(Nc1ccc(Cl)cn1)C(F)(F)F (stereo unspecified)	i
O=C(NCCc1c[nH]c2ccccc12)C(F)(F)F	i
O=C(Nc1ccccc1)c1sc2cc(C(F)(F)F)cnc2c1-c1cccs1	i
O=C(Nc1cccc(C(F)(F)F)c1)c1cc2ncc(Br)cn2n1	i

Bioassay records from PubChem BioAssay.

The list is partial (hit frequency here may not be typical).
